Screening results as filed in PubChem BioAssay.
Sa growth 42C: blocks Staphylococcus aureus growth | relative growth, % (no concentration beside the values) | 170,000 compounds, 0.53% hits | S. aureus RN4220 growth, OD600, 20 h, 42 °C; hits give low values;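 active means growth at 42 °C up to 50% and 20 or more points under that at 30 °C, or under 10% at both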;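 further: 300 nL library stock went into each well; scaled to the means of positive and negative controls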
HCMV NEC inh: cytomegalovirus nuclear egress complex inhibition. HTRF UL50-UL53 interaction, normalized percent inhibition. inhibition, % (concentration not given with the values). 190,000 compounds, 0.15% hits;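 active means both replicates at 50% or more, plus weaker picks with an unusually low signal ratio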;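 further: stock transfer was 100 nL into about 20 µL; 0% = negative control wells and 100% = wells with untagged competitor protein; inactives centre near -12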
GIV Gai3 FP: inhibitors of GIV GBA-motif binding to rat Galpha-i3. percent of control (FP), % (concentration not given with the values). 210,000 compounds, 0.42% hits. Galpha-i3/FITC-GIV peptide fluorescence polarization, 90 min; hits give low values; scaled: aluminum fluoride 0%, vehicle 100%. AID 1224905. P08753;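 active means replicate mean at 85% of control or lower, very high polarization wells dropped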;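 further: wells of about 15 µL received 100 nL stock; the first replicate is given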
Target sequence (P08753 whole entry, looked up): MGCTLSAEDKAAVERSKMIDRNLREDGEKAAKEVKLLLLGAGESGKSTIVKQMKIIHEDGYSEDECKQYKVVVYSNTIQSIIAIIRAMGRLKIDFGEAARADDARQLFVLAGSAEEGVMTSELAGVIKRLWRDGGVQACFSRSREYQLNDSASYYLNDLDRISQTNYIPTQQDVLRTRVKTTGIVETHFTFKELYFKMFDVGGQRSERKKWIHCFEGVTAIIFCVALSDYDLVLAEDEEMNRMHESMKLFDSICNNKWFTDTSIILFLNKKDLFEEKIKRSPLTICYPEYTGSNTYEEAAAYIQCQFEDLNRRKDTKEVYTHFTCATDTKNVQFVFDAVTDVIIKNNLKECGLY
Sa growth 42C second temp: second read-out of Sa growth 42C, no call of its own (marks repeat the call); relative growth, %; measured here: growth at 30 °C;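 optical density after 20 h as mean of two plates; 100% = untreated growth and lower means inhibition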
Numbers without * were called inactive; . = not tested or not shown; & = joins results of further samples.

SMILES | Sa growth 42C | Sa growth 42C second temp | HCMV NEC inh | GIV Gai3 FP
COC(=O)/C(=C/c1ccco1)NC(=O)c1ccccc1 | 105 | 86 | -32 | 108
CN(Cc1cn(-c2ccccc2)nc1-c1ccc(Cl)cc1)C(=O)CCc1ccco1 | 91 | 53 | -6 | .
O=C(CN1C(=O)CCc2cc(Br)ccc21)NCc1ccc(F)cc1 | . | . | -6 | 100
CCCC(C)C(=O)Nc1nnc(Cc2ccc(OC)cc2)s1 (stereo not given) | 98 | 83 | -12 | .
Cc1cccc(N2CCN(CCNC(=S)Nc3c(C)cccc3C)CC2)c1C | 88 | 51 | . | 101
CCn1c(SCCC#N)nnc1-c1ccncc1 | 115 | 76 | -3 | 103
CC(C)C(=O)Nc1ccc(-c2nc3ccc(NC(=O)C(C)C)cc3[nH]2)cc1 | 76 | 80 | 0 | .
COc1ccc2c(C)c(CC(=O)NCc3ccc(C)cc3)c(=O)oc2c1OC | 101 | 90 | -8 | 102
Cc1ccc(CSc2nc3cnn(C)c3c(=O)n2Cc2ccccc2)cc1 | 90 | 98 | -7 | 107
CSc1nc(-c2ccccn2)nc(N)c1C#N | 90 | 76 | -27 | 103
Cc1ccc(CC(=O)NC(C)C(C)(C)C)cc1 (stereo not given) | 112 | 82 | -30 | 102
O=C(NCCCN1CCCCC1)c1ccc2c(=O)n3c(nc2c1)CCCCC3 | 70 | 88 | . | 101
Cc1ccc(NC(=O)CCCc2nnc3n(C)c(=O)c4sccc4n23)cc1C | 94 | 92 | . | 107
CCn1c(COC(=O)CCc2ccc(OC)c(OC)c2)nc2cc(S(=O)(=O)N(C)C)ccc21 | 99 | 96 | -26 | .
Cc1ccc(N(C)C(=O)C2CC(=O)N(c3cccc(-c4noc(C)n4)c3)C2)cc1 (stereo not given) | . | . | -24 | 103
CCn1c(=O)c(=O)n(CC)c2cc(S(=O)(=O)NCc3ccc(OC)cc3)ccc21 | 97 | 80 | 3 | 105
COC(=O)c1ccc(CSc2nc3ccc(Cl)cc3[nH]2)o1 | 84 | 48 | 2 | .
CC(CNC(=O)Cn1ccc2cc(S(=O)(=O)N3CCCCC3)ccc21)c1ccccc1 (stereo not given) | 98 | 86 | . | 107
O=C(c1ccc(Cn2c(=S)[nH]c3cc4c(cc3c2=O)OCO4)cc1)N1CCN(c2ncccn2)CC1 | 95 | 84 | -25 | 105
C=CCOC(=O)C1=C(C)NC(SCC(=O)OCC)=C(C#N)C1c1cccs1 (stereo not given) | 77 | 68 | -22 | 100
O=c1c(NC2CCCCC2)c(-c2ccccc2)c1=O | . | . | -53 | 105
O=C(c1ccccc1NS(=O)(=O)c1ccc(F)cc1)N1CCCCC1 | 88 | 102 | 14 | .
Cc1ccc(-c2cn3cccnc3n2)cc1NC(=O)c1ccccc1 | 92 | 94 | . | 103
CC(C)(C)C(=O)NC1(C(F)(F)F)C(=O)Nc2c1c(=O)[nH]c(=O)n2-c1ccccc1 (stereo not given) | 107 | 87 | -13 | 103
CCNC(=S)N1CCC(C(N)=O)CC1 | 109 | 88 | -16 | 96
COc1cc(Cl)ccc1OC(=O)c1cn(-c2ccccc2OC)c(=O)c2ccccc12 | 82 | 90 | -24 | 106
CCCCCc1nn2cc(-c3ccccc3)nc2s1 | 103 | 92 | 3 | 97
COC(=O)CC(N)c1ccc(Cl)cc1 (stereo not given) | 97 | 87 | -24 | .
Cc1nc(/N=C(\NC(=O)c2ccccc2)Nc2ccccc2)[nH]c(=O)c1C | 108 | 99 | 3 | 106
CCSc1nn(CC(=O)Nc2ccc(C)cc2)c(N)c1S(=O)(=O)c1ccccc1 | . | . | -10 | 101
FC(F)(F)Oc1ccc(-c2cn3cccnc3n2)cc1 | 85 | 84 | -23 | 104
Oc1c(C(c2cccc(Cl)c2)N2CCOCC2)sc2nc(-c3ccco3)nn12 (stereo not given) | 186 | 92 | . | 97
CCCC(=O)Oc1c(Sc2ccc(Cl)cc2)c(C)nn1-c1ccccc1 | 63 | 24 | -10 | 103
CC(C)CNC(=O)C(=O)Nc1c2c(nn1-c1ccc(Cl)cc1)CSC2 | 102 | 91 | . | 104
CCOC(=O)Cc1ccc(NC(=O)N2CCC(CN3CCc4ccccc4C3)CC2)cc1 | 72 | 82 | . | 99
CN(C)C=Nc1cc(Cl)c(-n2cccc2)cc1Oc1ccc(Cl)cc1 | 106 | 102 | 8 | 104
COc1cccc(NC(=O)C2CC(=O)N(c3ccc(Br)cc3)C2)c1 (stereo not given) | 98 | 89 | -32 | 107
Cc1csc(N(C)C(=O)CSc2nnc(COc3cccc4ccccc34)o2)n1 | 98 | 72 | -5 | 101
CCOc1ccc(/C=C/C(=O)Nc2cc3c(cc2N2CCCCC2)n(C)c(=O)c(=O)n3C)cc1 | 101 | 83 | -8 | 106
Cc1csc(=O)n1CCCC(=O)O | 99 | 93 | -6 | .

The last 2 entries of the section before come first, to join the parts.
SMILES | Sa growth 42C | Sa growth 42C second temp | HCMV NEC inh | GIV Gai3 FP
CCOc1ccc(/C=C/C(=O)Nc2cc3c(cc2N2CCCCC2)n(C)c(=O)c(=O)n3C)cc1 | 101 | 83 | -8 | 106
Cc1csc(=O)n1CCCC(=O)O | 99 | 93 | -6 | .
COc1cc(NC(=O)c2cc3ccc4cccnc4c3[nH]2)cc(OC)c1 | . | . | -4 | 102
CCc1ccc(NC(=O)Cn2nc(SC)c(S(=O)(=O)c3ccc(OC)cc3)c2N)cc1 | 122 | 100 | . | 106
COc1ccc(N2CCN(CCCNC(=O)CN3C(=O)CCSc4ccccc43)CC2)cc1 | 108 | 89 | . | 100
Cc1c2c(=O)n(-c3ccccc3)[nH]c2cc(=O)n1CC1CCCO1 (stereo not given) | 100 | 98 | -48 | 106
Cc1ccc(C(=O)Nc2cc(-c3cn4cccnc4n3)ccc2C)cc1C | 98 | 86 | . | 101
COc1ccccc1N1CCN(S(=O)(=O)CCNC(=O)c2cc(=O)c3ccccc3o2)CC1 | 83 | 90 | . | 100
CC1=C(C(=O)Nc2ccc(Br)cn2)C(c2ccc(Cl)c([N+](=O)[O-])c2)C2=C(CCCC2=O)N1 (stereo not given) | . | . | -22 | 106
Cc1cccc(OCC(=O)O/N=C(\N)c2ccncc2)c1 | 85 | 83 | -33 | 101
O=C(O)Cn1c(SCCOc2ccc3ccccc3c2)nc2ccccc21 | . | . | -6 | 95
CCOc1ccc(OCC)c(S(=O)(=O)N2CCN(c3cccc(C)c3C)CC2)c1 | 99 | 101 | 20 | 106
CCOC(=O)Cn1c(=O)c2c(nc3n2CC(C)CN3c2cc(C)cc(C)c2)n(C)c1=O (stereo not given) | . | . | -28 | 102
Cc1nn(C)c(C)c1S(=O)(=O)N1CCN(c2nc3cccnc3s2)CC1 | . | . | -10 | 103
CCOC(=O)C1CCCN(C(=O)S(=O)(=O)c2ccc(-c3csc(C)n3)s2)C1 (stereo not given) | 89 | 84 | -28 | 102
O=c1[nH]c(Cn2c(-c3cncs3)nc3ccccc32)nc2ccccc12 | 71 | 56 | -17 | 123
CC1=C(C(=O)Nc2ccc(C(=O)NCCCN3CCC(N4CCCCC4)CC3)cc2)SCCO1 | . | . | 41 | 99
CCCCN1Cc2c(nc3cc(-c4ccccc4)[nH]n3c2=O)C1=O | 102 | 95 | 0 | 106
Cc1ccc(S(=O)(=O)c2nnn3c2nc(Nc2ccc(C(C)C)cc2)c2sccc23)cc1C | 97 | 85 | . | 106
CCC(C)NC(=O)CSc1nnc(Nc2ccc(C(C)C)cc2)s1 (stereo not given) | 104 | 94 | 7 | .
O=S(=O)(Nc1ccc2nc[nH]c2c1)c1ccccc1 | 102 | 86 | -6 | 104
COc1ccc(NC(=O)c2c[nH]n3c(=O)cc(C4CCNCC4)nc23)cc1Cl | 106 | 90 | 2 | 99
CCN(C(=O)CCc1nc(-c2ccccc2F)no1)c1ccc(C)c(C)c1 | 90 | 82 | -21 | 101
CCCCn1c(SCC(=O)Nc2nccs2)nc2ccsc2c1=O | 112 | 91 | 5 | 103
CC(=O)NCC(c1cccs1)N1CCc2ccccc21 (stereo not given) | 70 | 73 | -41 | 103
CCOc1cc(N2CCOCC2)c(OCC)cc1NC(=O)CCNS(=O)(=O)c1cc(C)ccc1C | 101 | 96 | -8 | .
CCc1ccc(NC(=O)c2ccc(NS(=O)(=O)c3c(C)noc3C)cc2)cc1 | 99 | 70 | -1 | 105
O=C(Oc1ccc2c(c1)OCO2)c1ccco1 | 91 | 88 | -23 | .
CNC(=O)C1=C(C)NC(=O)NC1c1cccs1 (stereo not given) | 105 | 90 | -4 | 106
O=C(OCn1nnc2ccccc2c1=O)c1ccc(S(=O)(=O)N2CCOCC2)cc1 | 99 | 85 | 13 | 106
O=C(NCc1ccccc1Cl)C1CCCN1C(=O)NCc1ccccc1 (stereo not given) | 93 | 85 | -24 | 97
CCN1CCN(C(=O)c2cc3cc(OC)ccc3oc2=O)CC1 | 85 | 102 | -39 | 108
CCOC(=O)C1(c2ccc(OC)cc2)CCOCC1 | 85 | 96 | -18 | 109
O=C(NC1CCCC1)c1ccc(-c2noc(C3CC3)n2)cc1 | . | . | -33 | 107
Cc1ccc(S(=O)(=O)N2CCN(C(=O)C3CCC(=O)N3)CC2)cc1 (stereo not given) | 92 | 98 | -4 | .
O=C(Nc1cccc(-n2cnnn2)c1)C1CCCN1C(=O)c1cccs1 (stereo not given) | 89 | 92 | -28 | .
CC[C@H]1OC(=O)[C@H](C)[C@@H](O[C@H]2C[C@@](C)(OC)[C@@H](O)[C@H](C)O2)[C@H](C)[C@@H](O[C@@H]2O[C@H](C)C[C@H](N(C)C)[C@H]2O)[C@](C)(O)C[C@@H](C)[C@@H]2N[C@@H](COCCOC)O[C@H]([C@H]2C)[C@]1(C)O | 14 | 2 | -28&2 | .
Cc1ccc(-c2nn(C)c(=O)c3ccccc23)cc1CO | 88 | 83 | -5 | 99
CCc1ccc(-c2cc(C)no2)cc1S(=O)(=O)NCc1ccco1 | 86 | 78 | . | 100
COc1ccc(-n2ncc(C(=O)NCc3ccc(-c4cccs4)cc3)c2C)cc1 | 86 | 87 | -55 | 104
CCSCCOC(=O)C1=C(C)NC2=C(C(=O)CC(c3ccc(OC)cc3)C2)C1c1cc2c(cc1[N+](=O)[O-])OCO2 (stereo not given) | . | . | -20 | 103
O=C(NCc1cccs1)c1cc(=O)n(Cc2ccc(Cl)cc2)c2ccccc12 | 109 | 77 | . | 99
CC(=O)Nc1ccc(NC(=O)c2cc(=O)c3ccccc3o2)cc1 | 108 | 84 | -92 | 102
CCOc1ccccc1N(C)C(=O)c1c2c(nc3ccccc13)C(=O)N(C1CCCCC1)C2 | 93 | 82 | . | 93
CCc1nnc2c3ccccc3nc(-c3ccncc3)n12 | 87 | 69 | -4 | .
O=C(O)CSc1ccc2c(c1)CCC2 | 130 | 114 | 27 | .
CC(NC(=S)NCCc1ccc(S(N)(=O)=O)cc1)C12CC3CC(CC(C3)C1)C2 (stereo not given) | 94 | 82 | . | 101
Cc1ccc(CSc2nc3ccsc3c(=O)n2Cc2ccccn2)cc1 | 93 | 79 | 5 | 102
Cc1ccccc1-c1nc2c3c(C)c(C)n(Cc4ccncc4)c3ncn2n1 | . | . | -5 | 106
CCOC(=O)Nc1nc2ccc(C)cc2s1 | 101 | 84 | . | 102
Cc1csc(NC(=O)c2ccc(S(=O)(=O)N3CCc4ccccc4C3)cc2)n1 | 96 | 97 | -3 | .
CCNc1cccc(C)c1 | 99 | 93 | -26 | .

An excerpt from above in order of molecular weight, ascending:
SMILES | Sa growth 42C | Sa growth 42C second temp | HCMV NEC inh | GIV Gai3 FP
Cc1csc(=O)n1CCCC(=O)O | 99 | 93 | -6 | .
COC(=O)CC(N)c1ccc(Cl)cc1 (stereo not given) | 97 | 87 | -24 | .
O=C(NC1CCCC1)c1ccc(-c2noc(C3CC3)n2)cc1 | . | . | -33 | 107
CCCCN1Cc2c(nc3cc(-c4ccccc4)[nH]n3c2=O)C1=O | 102 | 95 | 0 | 106
O=C(Nc1cccc(-n2cnnn2)c1)C1CCCN1C(=O)c1cccs1 (stereo not given) | 89 | 92 | -28 | .
O=C(O)Cn1c(SCCOc2ccc3ccccc3c2)nc2ccccc21 | . | . | -6 | 95
CC(C)CNC(=O)C(=O)Nc1c2c(nn1-c1ccc(Cl)cc1)CSC2 | 102 | 91 | . | 104
Cc1ccc(CSc2nc3ccsc3c(=O)n2Cc2ccccn2)cc1 | 93 | 79 | 5 | 102
Cc1ccc(N(C)C(=O)C2CC(=O)N(c3cccc(-c4noc(C)n4)c3)C2)cc1 (stereo not given) | . | . | -24 | 103
CCc1ccc(NC(=O)c2ccc(NS(=O)(=O)c3c(C)noc3C)cc2)cc1 | 99 | 70 | -1 | 105
CCOc1ccc(/C=C/C(=O)Nc2cc3c(cc2N2CCCCC2)n(C)c(=O)c(=O)n3C)cc1 | 101 | 83 | -8 | 106
O=C(c1ccc(Cn2c(=S)[nH]c3cc4c(cc3c2=O)OCO4)cc1)N1CCN(c2ncccn2)CC1 | 95 | 84 | -25 | 105
CCOc1cc(N2CCOCC2)c(OCC)cc1NC(=O)CCNS(=O)(=O)c1cc(C)ccc1C | 101 | 96 | -8 | .
CCSCCOC(=O)C1=C(C)NC2=C(C(=O)CC(c3ccc(OC)cc3)C2)C1c1cc2c(cc1[N+](=O)[O-])OCO2 (stereo not given) | . | . | -20 | 103
